# Compound activity deposited in PubChem BioAssay by National Center for Advancing Translational Sciences (NCATS).
# Methyltransferases – Primary Screen for Target Class Profiling of Small Molecule Inhibitors of Methyltransferases; purified enzyme, MTase-Glo SAH luminescence; stronger effect = lower value; 3.9% of 25,000 active; calls only at 40 µM; active = -50% or lower on at least one of six enzymes; inconclusive = the cases between; inactive = as a rule above -30% on all six;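 note: enzymes were COMT GAMT GNMT HNMT NNMT and PNMT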
#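 Each enzyme was assayed with SAM and its substrate. SAH formation detected by MTase-Glo luminescence; single-point 40 uM screen[…].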
# Calls only; i = inactive; u = inconclusive; + = active, no number; ! = a repeat was not active. % is set by controls: 0 for no effect and ±100 for the full control effect. Not all compounds are listed (hit frequency here may not be typical).
# The first 3 records, to show the layout:
SMILES,Methyltransferases
Cc1ccc(CNC(=O)N2Cc3ccccc3-n3cccc3C2c2ccc(C)cc2)cc1 (centres undefined),i
CCC1c2cccn2-c2ccccc2CN1C(=O)Nc1ccc(C)c(C)c1 (centres undefined),i
COc1ccc(C2c3cccn3-c3ccccc3CN2C(=O)Nc2cccc(SC)c2)cc1OC (centres undefined),i

# Main list, previewed entries included:
SMILES,Methyltransferases
Cc1ccc(CNC(=O)N2Cc3ccccc3-n3cccc3C2c2ccc(C)cc2)cc1 (centres undefined),i
CCC1c2cccn2-c2ccccc2CN1C(=O)Nc1ccc(C)c(C)c1 (centres undefined),i
COc1ccc(C2c3cccn3-c3ccccc3CN2C(=O)Nc2cccc(SC)c2)cc1OC (centres undefined),i
CCOc1ccc(NC(=O)N2Cc3ccccc3-n3cccc3C2C(C)C)cc1 (centres undefined),i
CC1=CC2OC3[C@H](O)C[C@@](C)([C@]34CO4)[C@@]2(CO)[C@H](O)C1=O (some centres undefined),i
OC1(c2ccc(Cl)cc2)c2ccccc2C2=NCCN21 (centres undefined),i
C=C(C)C(=O)O[C@H]1[C@@H]2[C@H](C)C(=O)O[C@@H]2C[C@@H](C)[C@@H]2C=CC(=O)[C@]21C,i
COc1ccc(C2c3cccn3-c3ccccc3CN2C(=O)Nc2ccc(F)c(Cl)c2)cc1OC (centres undefined),i
COc1ccc2c(C(=O)c3ccc(Cl)cc3)c(C)n(CC(=O)O)c2c1,i
COC(=O)CCNC(=O)N1Cc2ccccc2-n2cccc2C1c1ccc(C(C)C)cc1 (centres undefined),i
COc1ccc(C2c3cccn3-c3ccccc3CN2C(=O)NCc2ccc(C)cc2)cc1 (centres undefined),i
CN1C2CCC1CC(OC(c1ccccc1)c1ccccc1N)C2 (centres undefined),u
Cc1cc(NC(=O)N2Cc3ccccc3-n3cccc3C2C)ccc1Br (centres undefined),i
CCOc1ccccc1NC(=O)N1Cc2ccccc2-n2cccc2C1c1ccc(SC)cc1 (centres undefined),i
C/C=C(\C)C(=O)OC1CC2C(C)(C)OC(=O)CC(OC(C)=O)C2(C)C2CC(OC(=O)C(C)C)C3(C)C(c4ccoc4)CC4OC43C12C (centres undefined),i
CN(C)c1ccc(C2c3cccn3-c3ccccc3CN2C(=O)Nc2ccccc2C(F)(F)F)cc1 (centres undefined),i
COc1cc(OC)c(NC(=O)N2Cc3ccccc3-n3cccc3C2c2cccs2)cc1Cl (centres undefined),i
COC1CC(OC2CCC3(C=O)C(CCC4C3CCC3(C)C(C5=CC(=O)OC5)CCC43O)C2)OC(C)C1O (centres undefined),i
COCC1CN(Cc2ccsc2)CC12CCNCC2 (centres undefined),i
COc1cccc(NC(=O)N2Cc3ccccc3-n3cccc3C2c2ccc(OC)c(OC)c2)c1 (centres undefined),i
C[C@]12CC[C@H]3[C@@H]([C@H](O)CC4=CC(=O)CC[C@@]43C)[C@@H]1CC[C@@H]2O,i
Cc1cccc(NC(=O)N2Cc3ccccc3-n3cccc3C2c2ccc(N(C)C)cc2)c1 (centres undefined),i
Cc1cccc(NC(=O)N2Cc3ccccc3-n3cccc3C2C(C)C)c1 (centres undefined),i
Cc1ccc(NC(=O)N2Cc3ccccc3-n3cccc3C2c2ccc(N(C)C)cc2)cc1F (centres undefined),i
O=C(Nc1ccc(Br)cc1)N1Cc2ccccc2-n2cccc2C1c1ccccc1 (centres undefined),i
O=C(Nc1ccc2n(c1=O)C[C@H]1C[C@@H]2CN(C(=O)NC2CCCCC2)C1)c1ccco1,i
Cn1nc(C2CCCC2)cc1[C@H]1CN2CC[C@H]1C[C@@H]2CNC(=O)c1cccs1,i
O=C1NC2(CCN(Cc3ccccn3)C2)Oc2ccccc21 (centres undefined),i
COc1ccc(NC(=O)N2C[C@@H]3C[C@H](C2)c2c(NC(=O)CSC)ccc(=O)n2C3)cc1,i
O=C(Nc1ccc2c(c1)OCCO2)N1Cc2ccccc2-n2cccc2C1c1cc(F)cc(F)c1 (centres undefined),i
COc1ccc(NC(=O)N2Cc3ccccc3-n3cccc3C2c2ccc(N(C)C)cc2)cc1 (centres undefined),i
CC(C)NC(C)Cc1ccc(I)cc1 (centres undefined),i
Cc1ccc(C2c3cccn3-c3ccccc3CN2C(=O)Nc2ccc(Br)c(C)c2)cc1 (centres undefined),i
CCOc1ccc(C2c3cccn3-c3ccccc3CN2C(=O)Nc2ccc3c(c2)OCCO3)cc1 (centres undefined),i
NCCc1c[nH]c2ccc(C(N)=O)cc12,u
Cc1cccc(C2c3cccn3-c3ccccc3CN2C(=O)NCCc2ccccc2)c1 (centres undefined),i
CC1=CC2(O)/C=C/C(C)(O)C(O)C(O)/C=C/C(=O)OC23C(=O)NC(CC(C)C)C3C1C (centres undefined),i
CCOc1ccc(C2c3cccn3-c3ccccc3CN2C(=O)Nc2ccccc2C)cc1 (centres undefined),i
Cc1cccc(NC(=O)NC2N=C(c3ccccc3)c3ccccc3N(CC(=O)c3ccccc3C)C2=O)c1 (centres undefined),u
CC1CCCCCC(=O)c2c(O)cc(O)cc2CC(=O)O1 (centres undefined),i
COc1ccc(C2c3cccn3-c3ccccc3CN2C(=O)NCCC(C)C)cc1OC (centres undefined),i
COc1ccc(CC2C(=O)NC(C)C(=O)N(C)C3Cc4ccc(cc4)Oc4cc(ccc4OC4OC(CO)C(O)C(O)C4O)CC(C(=O)NC(C)C(=O)NC(CCC(=O)O)C(=O)N2C)N(C)C3=O)cc1 (centres undefined),i
CNC(=O)c1cc(C#N)cc(C)c1NC(=O)c1cc(Br)nn1-c1ncccc1Cl,i
CSc1ccc(C2c3cccn3-c3ccccc3CN2C(=O)NCc2ccco2)cc1 (centres undefined),i
COC1CN(c2ccc(C)cc2)C12CCNCC2 (centres undefined),i
COc1ccc(OC)c(NC(=O)N2Cc3ccccc3-n3cccc3C2c2ccc(F)cc2)c1 (centres undefined),i
COc1ccc2c(c1O)-c1cccc3c1[C@@H](C2)N(C)CC3,i
CCOC(=O)C1CCC(CNC(=O)N2Cc3ccccc3-n3cccc3C2c2cccs2)CC1 (centres undefined),i
CCC1c2cccn2-c2ccccc2CN1C(=O)NCCc1ccccc1 (centres undefined),i
CC(C)(C)c1cc(C=C(C#N)C#N)cc(C(C)(C)C)c1O,u
CC(C)CCNC(=O)N1Cc2ccccc2-n2cccc2C1C (centres undefined),i
C/C1=C/[C@@H](C)C/C=C/[C@H]2[C@@H]3O[C@]3(C)[C@@H](C)[C@H]3[C@H](Cc4c[nH]c5ccccc45)NC(=O)[C@]32C(=O)/C=C\C(=O)[C@@H]1O,i
Cc1ccc(C2c3cccn3-c3ccccc3CN2C(=O)Nc2cccc(C)c2C)cc1 (centres undefined),i
CCN1C[C@]2(COC)CC[C@H](O)[C@@]34C5C[C@@H]6[C@@H](OC)C[C@@](OC(C)=O)(C5[C@@H]6OC(C)=O)[C@H]([C@H](OC)C23)[C@@H]14 (some centres undefined),i
CC1=CC2/C=C(\C)CCCC(O)/C=C/C(=O)OC23C(=O)NC(CC(C)C)C3C1C (centres undefined),i
CCOC(=O)c1ccccc1NC(=O)N1Cc2ccccc2-n2cccc2C1c1ccccc1C (centres undefined),i
COc1ccc(C2c3cccn3-c3ccccc3CN2C(=O)Nc2ccccc2F)cc1OC (centres undefined),i
CC(C)NC(=O)N1Cc2ccccc2-n2cccc2C1c1cccc(Cl)c1 (centres undefined),i
CCCCCCCCCCCCCC(=O)O[C@@H]1[C@@H](C)[C@@]2(O)[C@@H](C=C(CO)C[C@@]3(O)C(=O)C(C)=C[C@@H]23)C2C(C)(C)[C@@]21OC(C)=O (some centres undefined),i
CC(=O)N1[C@H]2CC[C@@H]1c1cnc(-c3ccc(F)cc3)nc1C2,i
# Following part.
SMILES,Methyltransferases
CCOc1ccccc1NC(=O)N1Cc2ccccc2-n2cccc2C1C (centres undefined),i
CCOc1ccc(NC(=O)N2Cc3ccccc3-n3cccc3C2c2ccc(OCC)cc2)cc1 (centres undefined),i
CCOC(=O)c1cccc(NC(=O)N2Cc3ccccc3-n3cccc3C2c2ccccc2C)c1 (centres undefined),i
COc1ccc(NC(=O)N2Cc3ccccc3-n3cccc3C2c2ccc(SC)cc2)c(OC)c1 (centres undefined),i
COc1ccccc1NC(=O)N1Cc2ccccc2-n2cccc2C1c1cc(F)cc(F)c1 (centres undefined),i
C=C1C2(C)CC3C(C)(O)C4=CC(=O)OC(C)(C)C4=CCC3(C)C13C(=O)OC(C)C3(O)C2=O (centres undefined),i
CCOC(=O)c1c(NC(=O)N2Cc3ccccc3-n3cccc3C2CC)sc2c1CCCC2 (centres undefined),i
C[N+](C)(C)CC(=O)O,i
Cc1ccc(-n2nccn2)c(C(=O)N2CCN(c3nc4cc(Cl)ccc4o3)CCC2C)c1 (centres undefined),u
COc1cccc(CNC(=O)N2Cc3ccccc3-n3cccc3C2c2cccc(C)c2)c1 (centres undefined),i
COc1cccc(CNC(=O)N2Cc3ccccc3-n3cccc3C2C)c1 (centres undefined),i
COc1ccc(C2c3cccn3-c3ccccc3CN2C(=O)Nc2ccc(Br)cc2)cc1 (centres undefined),i
Cc1cccc(C2c3cccn3-c3ccccc3CN2C(=O)Nc2ccc(C)cc2Cl)c1 (centres undefined),i
O=C(NC1CN2CCC1CC2)c1cc2ccoc2cn1 (centres undefined),i
CC[C@H]1CN2CC[C@H]1C[C@H]2[C@H](O)c1ccnc2ccc(OC)cc12,i
COc1ccc(NC(=O)N2Cc3ccccc3-n3cccc3C2c2ccccc2C)cc1 (centres undefined),i
C#C[C@H]1CN2CC[C@H]1C[C@@H]2CNS(=O)(=O)c1cccs1,i
CC1Oc2cc3c(-c4c(O)cc(O)c5c(O)c6c(cc45)OC(C)C(C)C6=O)c(O)cc(O)c3c(O)c2C(=O)C1C (centres undefined),+
N#C/C(=C/c1ccc(O)c(O)c1)C(N)=S,+!
Cc1ccccc1C1c2cccn2-c2ccccc2CN1C(=O)Nc1cccc(Cl)c1C (centres undefined),i
COc1ccc(S(=O)(=O)N2C[C@@H]3C[C@H](C2)c2c(-c4cccs4)ccc(=O)n2C3)cc1,i
N#Cc1cccc(NC(=O)NC[C@H]2C[C@@H]3CCN2C[C@@H]3CN2CCN(c3ccccn3)CC2)c1,i
CCOC(=O)CNC(=O)N1Cc2ccccc2-n2cccc2C1c1cccs1 (centres undefined),i
CCC1c2cccn2-c2ccccc2CN1C(=O)Nc1cc(Cl)ccc1C (centres undefined),i
COc1cccc(CNC(=O)N2Cc3ccccc3-n3cccc3C2c2cccs2)c1 (centres undefined),i
Cc1cc(CN2CCC23Cc2ccccc2NC3=O)no1 (centres undefined),i
CC(C)CC(=O)N1CC[C@@H]2COCCN(C)[C@@H]2C1,i
O=C(NCc1ccc(F)cc1)N1Cc2ccccc2-n2cccc2C1c1cccs1 (centres undefined),i
COc1ccc(C2c3cccn3-c3ccccc3CN2C(=O)Nc2ccc(F)cc2F)cc1 (centres undefined),i
C=CC(C)(C)c1[nH]c2c(CC=C(C)C)cc(CC=C(C)C)cc2c1C[C@@H]1NC(=O)[C@H](C)NC1=O,i
C[C@](O)(CS(=O)(=O)c1ccc(F)cc1)C(=O)Nc1ccc(C#N)c(C(F)(F)F)c1,u
CN(C(=O)CN1C(=O)COc2cc(Cl)c(Cl)cc21)[C@@H](CN1CCCC1)c1ccc(-c2cccc(C(N)=O)c2)cc1,u
NC(=O)COc1c(F)cc(SCCNS(=O)(=O)c2ccccc2)cc1F,i
Cc1ccc(C2c3cccn3-c3ccccc3CN2C(=O)Nc2cc(Cl)ccc2C)cc1 (centres undefined),i
O=C1NC(=O)c2c1c1c3ccccc3[nH]c1c1[nH]c3ccccc3c21,+
CN(N=O)c1ccc(O)c(O)c1,+

# In a second layout: results already given
Structure | Methyltransferases
N#C/C(=C/c1ccc(O)c(O)c1)C(N)=S | +!
Cc1ccccc1C1c2cccn2-c2ccccc2CN1C(=O)Nc1cccc(Cl)c1C (centres undefined) | i
COc1ccc(S(=O)(=O)N2C[C@@H]3C[C@H](C2)c2c(-c4cccs4)ccc(=O)n2C3)cc1 | i
N#Cc1cccc(NC(=O)NC[C@H]2C[C@@H]3CCN2C[C@@H]3CN2CCN(c3ccccn3)CC2)c1 | i
CCOC(=O)CNC(=O)N1Cc2ccccc2-n2cccc2C1c1cccs1 (centres undefined) | i
CCC1c2cccn2-c2ccccc2CN1C(=O)Nc1cc(Cl)ccc1C (centres undefined) | i
COc1cccc(CNC(=O)N2Cc3ccccc3-n3cccc3C2c2cccs2)c1 (centres undefined) | i
Cc1cc(CN2CCC23Cc2ccccc2NC3=O)no1 (centres undefined) | i
CC(C)CC(=O)N1CC[C@@H]2COCCN(C)[C@@H]2C1 | i
O=C(NCc1ccc(F)cc1)N1Cc2ccccc2-n2cccc2C1c1cccs1 (centres undefined) | i
COc1ccc(C2c3cccn3-c3ccccc3CN2C(=O)Nc2ccc(F)cc2F)cc1 (centres undefined) | i
C=CC(C)(C)c1[nH]c2c(CC=C(C)C)cc(CC=C(C)C)cc2c1C[C@@H]1NC(=O)[C@H](C)NC1=O | i
C[C@](O)(CS(=O)(=O)c1ccc(F)cc1)C(=O)Nc1ccc(C#N)c(C(F)(F)F)c1 | u
CN(C(=O)CN1C(=O)COc2cc(Cl)c(Cl)cc21)[C@@H](CN1CCCC1)c1ccc(-c2cccc(C(N)=O)c2)cc1 | u
NC(=O)COc1c(F)cc(SCCNS(=O)(=O)c2ccccc2)cc1F | i
Cc1ccc(C2c3cccn3-c3ccccc3CN2C(=O)Nc2cc(Cl)ccc2C)cc1 (centres undefined) | i
O=C1NC(=O)c2c1c1c3ccccc3[nH]c1c1[nH]c3ccccc3c21 | +
CN(N=O)c1ccc(O)c(O)c1 | +
